# PINK1 expr mod = changes PINK1 expression; Potency, µM (doses to about 76.6 µM), for the others: at the highest dose activation (PINK1 increase), hits mostly activators; AID 624263; PINK1 immunofluorescence, high-content cytometry, 24 h; hit rate 0.2% among 410,000; active = well fitted activation curve with a large enough effect; inconclusive = small, poorly fitted or top-dose-only effect; inactive = flat fitted curve, though single readings scatter; cell line not stated here;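 further: potency means the concentration at half of the fitted maximal effect; % of control where 0% means no effect; nearly all actives have a fitted effect of over 65% in size; a mitochondrial uncoupler was the plate control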
#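 Compound titrations (5 concentrations, 24 h) on a stable cell line; DMSO and CCCP controls. Endpoint: fixed-cell PINK1 immunofluorescence with mitochondrial, cell and nuclear markers, scanned by microplate cytometer.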
# Sfp PPTase inh = inhibitors of Bacillus subtilis Sfp phosphopantetheinyl transferase. Biochemical Sfp PPTase activity, qHTS. hit rate 3.5% among 310,000. Q9F4F7. Potency, µM, for inactives: max response, negative = inhibition, actives largely listed as inhibitors; active means well fitted inhibition curve with a large enough effect; inconclusive means small, poorly fitted or top-dose-only effect, or another doubt; inactive means no such curve, though single readings can be large or run the other way;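 further: the enzyme is Sfp with the accession as filed and its product quenches rhodamine fluorescence; potency means the concentration at half of the fitted maximal effect; 0% = enzyme reaction without inhibitor and -100% = no enzyme wells; top concentration of the series not given in the record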
#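 Buffer: 50 mM Hepes-Na pH 7.6, 10 mM MgCl2, 0.01% Nonidet P-40, 0.01% BSA. Enzyme 15 nM, pre-exposed to compound 15 min; substrates then added and fluorescence change tracked over 30 min.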
# D2 ag = agonists of human D2 dopamine receptor (beta-arrestin). P14416. DiscoveRx PathHunter D2 beta-arrestin, luminescence, 90 min; 100% = 57 uM dopamine signal. activation, % (no concentration beside the values). hit rate 0.084% among 360,000. AID 624465; in the data active = activation above about 40%; inconclusive = about 15% to 40%; inactive = below about 15%; further: compound concentration not given in the record; the text of the record calls up to 30% inactive
# Target sequence (P14416 whole entry, looked up): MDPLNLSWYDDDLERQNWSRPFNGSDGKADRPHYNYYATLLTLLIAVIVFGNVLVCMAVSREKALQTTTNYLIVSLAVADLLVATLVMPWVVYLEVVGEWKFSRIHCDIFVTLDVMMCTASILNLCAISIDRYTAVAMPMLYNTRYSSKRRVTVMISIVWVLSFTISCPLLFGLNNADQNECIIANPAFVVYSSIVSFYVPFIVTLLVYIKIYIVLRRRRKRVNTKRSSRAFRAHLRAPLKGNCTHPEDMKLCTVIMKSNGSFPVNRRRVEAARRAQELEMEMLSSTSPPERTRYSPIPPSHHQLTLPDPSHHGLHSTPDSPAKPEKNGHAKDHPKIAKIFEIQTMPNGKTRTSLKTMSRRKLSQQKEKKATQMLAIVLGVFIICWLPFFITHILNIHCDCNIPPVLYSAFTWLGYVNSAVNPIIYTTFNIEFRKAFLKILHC
#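 DiscoveRx PathHunter D2 beta-arrestin cells (2,100/well) attached overnight, then compound-stimulated 90 min at 37 C in HBSS/10 mM HEPES/0.1% Tween-20 buffer; beta-galactosidase complementation read by luminescence after 1 h at ambient temperature. Dopamine 57 uM final (EC100) as control.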
# TRPV1 potentiator = enhances activation of the human vanilloid receptor TRPV1 | Q8NER1 | TRPV1-expressing cells, Fluo-8 calcium influx, capsaicin EC20 potentiation; host cell line not named in the record; control for the full effect not named in the record | potentiation, % at 8.33 µM | hit rate 0.02% among 320,000; active means potentiation above 80%; inconclusive means 30% to 80%; inactive means below 30%; further: 0% is about no effect
#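 TRPV1-expressing cells were cultured overnight at 35.5C and loaded with Fluo-8 calcium dye for 40 to 90 min at room temperature. After a 10 s baseline, compound was added and calcium influx was read kinetically for 3 min (ex 480/em 520 nm).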
# CtBP-E1A inh = blocks the CtBP interaction with E1A. hit rate 0.49% among 340,000. activity change, % (no concentration beside the values). AlphaScreen GST-E1A/His-CtBP binding, 1536-well; stronger effect = lower value; control for the full effect not named in the record; in the data active means activity change below about -65%; inconclusive means about -30% to -65%; inactive means above about -30%; further: on the % scale 0 is the no-effect control and ±100 the full control effect; compound concentration not given in the record
#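 In 5 uL wells, 23 nL compound meets equimolar GST-E1A and His-CtBP (5X stock 125 nM each) for 2 h, 37 °C. Beads (5X, 50 ug/mL) then 1 h, 37 °C, dark.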
# D2 PAM = positive allosteric modulators of human D2 dopamine receptor | P14416 | DiscoveRx D2 beta-arrestin cells, luminescence, 90 min; 100% = 57 uM dopamine signal | potentiation, % (test concentration not listed) | hit rate 0.23% among 360,000 | AID 624464; active = potentiation of 50% or more; inconclusive = 30% to 50%; inactive = 30% or less;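 further: compound concentration not given in the record; tested on top of an EC20 dose of dopamine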
#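 PathHunter D2 cells, attached overnight at 37 deg C, received compound in DMSO plus dopamine at EC20 (50 nM final) for 90 min at 37 deg C. Beta-arrestin recruitment was read as luminescence after 1 h with detection reagent at ambient temperature.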
# Six1-Eya2 inh = Six1/Eya2 interaction inhibition; AlphaScreen GST-Six1/His-Eya2 binding, biochemical; stronger effect = lower value; control for the full effect not named in the record; Q15475+O00167; hit rate 0.56% among 360,000; activity change, % (test concentration not listed); in the data active = activity change below about -65%; inconclusive = about -30% to -65%; inactive = above about -30%; further: on the % scale 0 is the no-effect control and ±100 the full control effect; compound concentration not given in the record
#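 Homogeneous AlphaScreen proximity assay pairing GST-Six1 with His-tagged Eya2 (added as 5X mix: 250 nM and 500 nM) in 50 mM Tris pH 8.0, 300 mM NaCl, 1 mM TCEP. Glutathione donor and nickel acceptor beads; 1 h, 37 °C, dark.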
# * marks the source's active call; other numbers are inactive results; ? = inconclusive; nt = not tested or not shown; & = joins results of further samples; [ ] = dose if it differs, or a comment.
SMILES,PINK1 expr mod,Sfp PPTase inh,D2 ag,TRPV1 potentiator,CtBP-E1A inh,D2 PAM,Six1-Eya2 inh
Cc1ccc(-n2nc3c(c2NC(=O)/C=C\c2ccc4c(c2)OCO4)CSC3)c(C)c1,0.1%,-5%,-4.1,10,-1,0,-6
O=C(NC(=S)Nc1ccccc1Cl)c1cnn2c(C(F)(F)F)cc(C(F)(F)F)nc12,4.0%,-4%,-2.8,7,-16,-7,-3
O=C(CSc1ncccn1)NCC1CCCO1 (stereo not given),1.1%,nt,2.9,nt,9,-18,0
COC(=O)CC1C(=O)NCCN1C(=O)Nc1ccc(Cl)c(Cl)c1 (stereo not given),2.0%,-2%,-19,?,-5,-8,33
O=C(COC(=O)c1ccc(F)cc1Cl)NC(=O)NC1CCCC1,12%,nt,1.5,20,nt,15,3
CN(NC1OC(=O)c2ccccc21)c1ccccc1[N+](=O)[O-] (stereo not given),-0.6%,12%,-6.2,?,-17,-13,-1
COc1ccccc1-c1n[nH]nc1C1=CC(=O)C[C@H](c2ccc(F)cc2)C1,4.5%,nt,-2.7,nt,-3,-6,4
Cc1ccc(NC(=O)CSc2nnc(CN3CCOCC3)n2C)cc1C,-1.2%,5%,-1.5,8,-1,-15,0
COc1ccc(CNC(=O)C2CCN(C(=O)N(C)C)CC2)c(OC)c1,7.2%[38.3 µM],-4%,0.9,1,-4,-8,1
CC1CCCCN1CCNC(=O)c1cnn2ccccc12 (stereo not given),0.0%,2%,-0.5,7,7,-7,1
Cc1cccc(OCC(=O)NCc2nnc3ccc(C(F)(F)F)cn23)c1C,1.1%,nt,1.1,5,10,-2,5
CCCCOP(=O)(OCCCC)C(Nc1ccccc1)c1ccc2c(c1)OCO2 (stereo not given),?,11%,1.0,-15,3,-4,-1
Cc1ccc(S(=O)(=O)N2CCC(C)CC2)cc1,-0.4%,17%,-5.6,-3,-2,-4,10
COc1ccc(S(=O)(=O)Nc2ccccc2Cl)cc1NC(C)=O,3.6%,-4%,-0.7,-1,16,-3,8
CN(C)CCN1CCN(C2CN(Cc3cn(Cc4ccc(Cl)cc4)nn3)S(=O)(=O)C2)CC1 (stereo not given),0.4%,nt,nt,nt,1,nt,-7

# Part of the list above, field by field:
Cc1ccc(-n2nc3c(c2NC(=O)/C=C\c2ccc4c(c2)OCO4)CSC3)c(C)c1
  PINK1 expr mod = 0.1% | Sfp PPTase inh = -5% | D2 ag = -4.1 | TRPV1 potentiator = 10 | CtBP-E1A inh = -1 | D2 PAM = 0 | Six1-Eya2 inh = -6

Cc1cccc(OCC(=O)NCc2nnc3ccc(C(F)(F)F)cn23)c1C
  PINK1 expr mod = 1.1% | Sfp PPTase inh = nt | D2 ag = 1.1 | TRPV1 potentiator = 5 | CtBP-E1A inh = 10 | D2 PAM = -2 | Six1-Eya2 inh = 5

CCCCOP(=O)(OCCCC)C(Nc1ccccc1)c1ccc2c(c1)OCO2 (stereo not given)
  PINK1 expr mod = ? | Sfp PPTase inh = 11% | D2 ag = 1.0 | TRPV1 potentiator = -15 | CtBP-E1A inh = 3 | D2 PAM = -4 | Six1-Eya2 inh = -1

# (next part)
SMILES,PINK1 expr mod,Sfp PPTase inh,D2 ag,TRPV1 potentiator,CtBP-E1A inh,D2 PAM,Six1-Eya2 inh
CCN(CC)S(=O)(=O)c1ccc(OC)c(NC(=O)C2CC(=O)N(c3ccc(C)cc3)C2)c1 (stereo not given),0.3%,7%,1.7,20,7,-2,-9
CCOc1ncccc1C(=O)OCC(=O)c1cccc(Br)c1,-0.5%,6%,-6.1,-8,-1,-2,6
O=C(NCc1ccccc1)c1cc2ccccc2oc1=O,2.1%,0%,0.6,-9,1,1,6
COc1ccccc1N1CCN(C(=O)c2ccccc2NC(=O)C2CCCCC2C(=O)O)CC1 (stereo not given),2.2%,17%,-0.2,-3,9,-16,9
CC1=C(C(=O)NC2CCCc3c2cnn3-c2cccc(C)c2C)OCCO1 (stereo not given),1.1%,4%,-6.8,-2,7,3,1
CC1(c2nnnn2-c2ccc3c(c2)OCCO3)CCC(=O)N1Cc1cccc(C(F)(F)F)c1 (stereo not given),0.1%,nt,nt,nt,1,nt,-7
CC(=O)Nc1ccc(S(=O)(=O)Nc2cccc(C(=O)NC(C)(C)C)c2)cc1,0.2%,4%,-1.2,nt,6,-11,3
COc1ccc(N(C(C)C(=O)Nc2ccc(S(=O)(=O)N3CCOCC3)cc2)S(C)(=O)=O)cc1 (stereo not given),0.7%,-10%,-4.6,-1,7,-5,-9
CCN(CC)S(=O)(=O)c1ccc(N2CCN(C)CC2)c(NC(=O)COc2ccc(F)cc2Cl)c1,2.1%,nt,-4.0,-3,-1,-33,-18
O=C(c1ccc(F)cc1)C1CCN(C(=S)NCC2CCCO2)CC1 (stereo not given),-0.3%,11%,0.9,-8,5,-6,0
NC1=NC2(CCC(c3ccccc3)CC2)n2c(nc3ccccc32)N1 (stereo not given),0.8%,5%,-1.5,-3,-19,-20,-17
CC1CCCC(NC(=O)COC(=O)[C@@H](NC(=O)c2ccco2)C(C)C)C1C (stereo not given in full),5.2%,15%,0.9,-10,1,-5,0
FC(F)(F)c1nnc2sc(-c3ccncc3)nn12,-1.9%,6%,-0.3,-5,2,1,-2
CC1(C(=O)NCc2cccc3ccccc23)CCN1Cc1cccc2c1OCO2 (stereo not given),3.1%,nt,-3.0,nt,-7,-8,-13
O=C(CSc1nnnn1C1CCCC1)N1CCCCC1,2.4%,17%,9.0,18,3,-1,6
CC1(c2nnc(Cc3ccccc3)o2)CC(c2ccccc2)=NO1 (stereo not given),0.9%,nt,-2.4,nt,-7,-9,12
Cc1onc(-c2ccccc2)c1C(=O)c1c[nH]c(C(=O)NCc2ccncc2)c1,2.1%,17%,0.3,?,4,-3,4
Cc1ccc(-n2nc3c(c2NC(=O)c2c(-c4ccccc4Cl)noc2C)CSC3)cc1,1.4%[38.3 µM],-26%,-2.2,19,3,-8,-4
NS(=O)(=O)c1ccc(CCNC(=S)NC(=O)c2ccccc2Br)cc1,6.8%,nt,-3.1,nt,-1,-4,-3
COc1cc(C2Nc3ccccc3NC3=C2C(=O)CC(c2ccc(OC)c(OC)c2)C3)ccc1O (stereo not given),0.8%,5%,1.4,-3,25,1,11
O=C(Cn1cnc(S(=O)(=O)N2CCCC2)c1)Nc1cccc(F)c1,-1.3%&0.7%,14%,-0.1,-14,1,-11,-1
O=C(O)c1ccccc1NCc1cccnc1,-1.3%,nt,-5.6,nt,-11,-10,1
COC(=O)C(CCCN1C(=O)c2ccccc2C1=O)(NC(C)=O)c1nnn(C)n1 (stereo not given),-1.2%,7%,-0.7,6,-1,-2,2
O=C(CCC(=O)c1ccc(F)cc1)Nc1cccc(C(F)(F)F)c1,-0.9%,3%,-1.8,8,12,-8,20
O=C(C1CCN(CC2CCCCC2)CC1)N1CCCC1,-0.2%,-25%,-2.3,1,1,2,4
Cc1cc(C)nc(NC(=O)C(C)N2C(=O)c3ccccc3C2=O)n1 (stereo not given),0.4%,-3%,2.4,1,7,-11,-1
O=C(CN1C(=O)NC2(CCCC2)C1=O)NCCC1=CCCCC1,0.2%,7%,-1.6,-14,4,2,-1
Cc1ccc(S(=O)(=O)NC(=O)C2(C)CCN2C(=O)C2CCCCC2)nc1 (stereo not given),-0.5%,nt,-3.2,nt,4,-3,6
CC(O)CC(C)O (stereo not given),1.9%,nt,-2.0,8,-9,-7,2
O=C(/C=C/c1ccc(S(=O)(=O)N2CCOCC2)cc1)N(CCO)Cc1ccccc1,0.2%,7%,-1.9,-10,1,-4,0
Cc1ccccc1Nc1c([N+](=O)[O-])cncc1[N+](=O)[O-],0.2%,-9%,7.4,-20,-9,8,-23
O=C(NC(=S)Nn1cnnc1)c1ccc(F)cc1Cl,-0.3%,50µM*,-5.2,-4,6,-12,12
Cc1ccc(OC(=O)NC2CCS(=O)(=O)C2)cc1C (stereo not given),1.2%[38.3 µM],19%,-0.3,3,2,-4,5
CC(C)Oc1cccc(C(=O)Nc2ccc(Br)cc2F)c1,6.2%,?,-2.8,-8,0,-25,29
Cc1nnc(SCC(=O)NCc2cccs2)[nH]c1=O,1.3%[38.3 µM],-22%,-2.1,4,-1,-12,-1
CCCCS(=O)(=O)Nc1ccc2c(c1)ncn2C1CCCCC1,2.9%[38.3 µM],-19%,0.6,-4,5,3,-3
Clc1ccc(C#Cc2cccnc2)cc1,0.7%,nt,-6.5,17,10,-16,7
O=c1cc(CN2CCN(c3ccccc3O)CC2)nc2sccn12,1.3%,-9%,-2.1,20,1,-6,-9
Cc1ccc(NC(=O)C2CCCN(S(=O)(=O)c3c(C)noc3C)C2)cc1 (stereo not given),-1.3%&3.3%,24%,-3.2,-4,nt,2,3
CCOC(=O)CN(c1ccccc1C)S(=O)(=O)c1ccc(Cl)cc1,1.0%,3%,-0.8,-11,24,-7,24
Cc1ccc(S(=O)(=O)N/N=C/c2cc(Br)ccc2O)cc1,2.0%,3%,-7.0,nt,2,-3,-1
Cc1c(C(=O)C(=O)NCCC2=CCCCC2)c2ccccc2n1C,11%,9%,-3.5,?,-12,-14,1
CCCCC1(CC(=O)OC)C(=O)N(c2ccccc2)N(c2ccccc2)C1=O,1.4%,20%,-3.8,-9,-21,-11,25
OC(CNCC(c1ccc(Cl)cc1Cl)c1c[nH]c2ccccc12)c1ccccc1 (stereo not given),-1.9%,50µM*,4.7,-3,-2,-14,-14
C=CCN1CCN(C(=O)c2c(-c3ccccc3)noc2C)CC1,-1.1%,19%,1.8,-10,0,0,5
Cc1cccc(-n2ncc3c(N(CCO)CCO)ncnc32)c1,0.6%,18%,2.9,12,6,7,-4
CC(C)c1cc(C(=O)Nc2cc(Cl)ccc2O)no1,?,5%,6.5,-10,0,13,-1
c1cncc(-c2nnc(-c3cccnc3)nn2)c1,0.5%,40µM*,4.5,0,12,-21,-3
Clc1cccc(CSc2nnc(-c3c[nH]c4ccccc34)o2)c1,0.3%,2%,-0.1,-2,-2,-3,-2
CC(C)C[C@H]1COc2cc(N(C)CCO)ccc2S(=O)(=O)N1,0.2%,nt,nt,nt,2,nt,-2
Cc1c(C(=O)Nc2cccc(C(F)(F)F)c2)oc2ccc(S(=O)(=O)N3CCOCC3)cc12,15%[38.3 µM],10%,-1.3,-5,1,-5,3
O=S(=O)(Nc1ccc(Oc2ncccn2)c(Cl)c1)c1ccc(Cl)cc1,0.8%,2%,-5.8,-2,43,-3,55
CCCCn1ccnc1C,0.7%,-2%,-3.2,3,-2,-3,-3
Cn1cccc1C(=O)NCC1COc2ccccc2O1 (stereo not given),1.9%,nt,-2.4,-5,3,?,-3
